Hsc70 = Hsc70 inhibitors, probe displacement, primary screen, biochemical, fluorescence polarization (AID 568); displacement, % at 20 µM, or IC50 in µM where a hit was titrated; 83,000 tested, under 10 active; Hsc70 fluorescence polarization, probe displacement; higher % means a stronger effect; strong numbers were not always called active;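 active = displacement above 50% without optical interference and an IC50 on retest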;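 note: ATPase domain with a fluorescein-tagged ATP probe; 0% = vehicle and 100% = excess ADP; read after one hour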
MT1-MMP reporter = MT1-MMP gene expression reporter suppression – cell-based, luciferase reporter, luminescence (AID 618) | MT1-MMP promoter luciferase reporter cells, luminescence | calls from a first round at 10 µM; hits with a dose series show EC50 in µM | 0.62% of 87,000 active;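 active = over half of the reporter light lost at 10 µM or EC50 under 50 µM; inactive = the rest and hits that failed the dose series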;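 note: actives suppress MT1-MMP promoter-driven transcription so potencies describe inhibitors; HT1080 fibrosarcoma cells; overnight exposure; toxic or luciferase-blocking compounds were not removed from the actives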
WNV protease inh = inhibitors of West Nile virus NS2B-NS3 protease; 0.18% of 65,000 active; WNV NS2B-NS3 protease, fluorogenic substrate Ex360/Em465; hits give low values; z-score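 (tested at a level between 10 and 100 µM)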; P06935;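 active = z-score at -3 or under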;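 note: score is relative to mean and spread of the compound wells of a plate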
Target sequence (P06935 1371-1501 limits assumed): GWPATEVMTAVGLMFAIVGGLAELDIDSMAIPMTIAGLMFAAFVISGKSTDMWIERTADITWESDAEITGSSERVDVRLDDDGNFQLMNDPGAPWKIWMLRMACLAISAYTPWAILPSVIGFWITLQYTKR
Target sequence (P06935 1502-1679 limits assumed): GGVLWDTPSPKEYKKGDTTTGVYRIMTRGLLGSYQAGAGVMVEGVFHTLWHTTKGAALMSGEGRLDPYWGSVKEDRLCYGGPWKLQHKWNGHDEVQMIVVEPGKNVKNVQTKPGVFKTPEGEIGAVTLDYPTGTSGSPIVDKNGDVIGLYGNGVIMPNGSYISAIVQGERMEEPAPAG
Numbers without * were called inactive; i = inactive; · = not tested or not shown. Not all compounds are listed (hit frequency here may not be typical).

| Molecule | Hsc70 | MT1-MMP reporter | WNV protease inh |
| --- | --- | --- | --- |
| CCc1ccccc1NC(=O)CC1S/C(=N\c2nccs2)N(CC)C1=O (stereo unspecified) | -1.0% | i | -0.6 |
| CC(=O)NC(CCS(C)(=O)=O)C(=O)Nc1ccc(Cl)c(Cl)c1 (stereo unspecified) | 1.8% | i | 0.83 |
| COC(=O)c1ccc(-c2nc(O)c3cnccn23)cc1 | 1.3% | i | 0.47 |
| CCOc1cc(C2C(C(=O)O)c3cc(OCC)c(OCC)cc3C(=O)N2C)ccc1O (stereo unspecified) | 3.1% | i | 0.35 |
| CCCCN(C(=O)NC(=O)Nc1c(C)cc(C)cc1C)S(C)(=O)=O | -3.4% | i | -0.56 |
| COc1ccc(CC(=O)N2CC(C)CC(C)C2)cc1 (stereo unspecified) | -2.1% | i | · |
| N#Cc1c(-c2ccco2)cc(C2CC2)nc1N | 1.2% | i | 0.71 |
| COCCCNC(=O)c1ccc(N2CCOCC2)c(NS(=O)(=O)c2ccc(OC)cc2)c1 | -0.3% | i | · |
| Cc1ccc(-n2c(SCc3nnc4n3CCC4)nnc2-c2ccccc2)cc1 | -3.2% | i | -2.1 |
| O=C(O)CN(c1ccc(F)cc1)S(=O)(=O)c1ccc2c(c1)OCCO2 | -4.7% | i | 2.8 |
| Cc1cc(Nc2ccccc2)n(CCOC(=O)COc2ccccc2)n1 | 0.1% | i | -0.75 |
| CCC1CCc2c(sc(N)c2C(N)=O)C1 (stereo unspecified) | 5.0% | i | · |
| COc1ccc(OCCSc2nc3ccccc3n2CC(=O)O)cc1 | -0.9% | i | 1.7 |
| CC(C)c1ccc(NC(=O)c2cccnc2)cc1 | 1.4% | i | -0.92 |
| CCCCc1nc(NCCN)c(C#N)c2c1CSC(C)(C)C2 | -5.0% | i | · |
| Cn1c(C(=O)NCCc2ccsc2)cc2c(=O)n(C)c3ccccc3c21 | 3.7% | i | 1.4 |
| COC(=O)c1ccc(CSc2ccc3nnc(-c4cccnc4)n3n2)o1 | 4.4% | i | -0.01 |
| Cn1c(=O)c2cc(S(=O)(=O)NCCC(=O)NCC3CCCO3)ccc2n(C)c1=O (stereo unspecified) | -0.9% | i | -0.05 |
| COc1ccc(C2C3C(=O)N(Cc4ccccc4)C(=O)C3ON2c2ccccc2)c(OC)c1OC (stereo unspecified) | 8.3% | i | -0.1 |
| O=C(CSc1nnc(-c2ccccc2)n1Cc1ccccc1)NC1CC1 | 6.7% | i | -0.36 |
| COc1ccc2c(c1)CC/C(=C\Nc1ccc3c(c1)OCO3)C2=O | -18% | i | · |
| N#Cc1c2n(c3c(=O)n(CC(=O)c4ccc(Br)cc4)cnc13)CCCC2 | -6.1% | i | -0.67 |
| CCn1c(SCc2cccnc2)nc2c1c(=O)n(C)c(=O)n2C | -0.6% | i | -0.49 |
| CN1C(=O)c2c(sc3c2CC(C)(C)SC3)N2CCN=C12 | 1.0% | i | -1.1 |
| CN(C)CCCN1C(=O)C(=O)/C(=C(/O)c2ccc3c(c2)OCO3)C1c1ccco1 (stereo unspecified) | 5.7% | i | 0.26 |
| COc1ccc(CNC(=O)CCOc2ccc(C(C)(C)C)cc2)cc1 | 9.2% | i | · |
| CCCC1(C)SC(NC(C)=O)=NN1C(C)=O (stereo unspecified) | -1.1% | i | · |
| COc1ccc2oc(=O)c(C(=O)NCc3cccnc3)cc2c1 | 6.1% | i | · |
| CCN1CCN(C(c2cccs2)C(C)NC(=O)c2c(F)cccc2F)CC1 (stereo unspecified) | -2.8% | i | -0.92 |
| COC(=O)CON1C(=O)c2ccccc2C1=O | -2.4% | i | · |
| Cc1occc1-c1nnc(SCC(=O)Nc2ccccc2-c2ccccc2)n1C | 1.9% | i | 0.01 |
| Cc1ccc(-c2nn[nH]n2)cc1 | 0.7% | i | -0.62 |
| O=S(=O)(c1ccc(Br)s1)n1cccn1 | 1.0% | i | 0.25 |
| CCC(C)Sc1nc2c(c(=O)[nH]c(=O)n2C)n1CC(O)COc1ccccc1C (stereo unspecified) | -0.2% | i | · |
| O=C1c2oc3ccc(Cl)cc3c(=O)c2C(c2cccc(Br)c2)N1CCO (stereo unspecified) | 4.3% | i | 0.23 |
| COCCn1c(SCc2ccc(C(=O)OC)o2)nnc1-c1c[nH]c2ccccc12 | 0.7% | i | 0.16 |
| NS(=O)(=O)c1ccc(NC(=O)COC(=O)CSc2n[nH]c(-c3ccccc3)n2)cc1 | 1.3% | i | 0.24 |
| O=C(C1CCCN1S(=O)(=O)c1ccc(Cl)c(Cl)c1)N1CCOCC1 (stereo unspecified) | -2.8% | i | -1.3 |
| Cc1cc(C)n2nc3nc(N4CCCCC4)nc(-c4ccco4)c3c2n1 | 0.0% | i | -0.77 |
| CC1(C)NC(=O)N(CC(O)CN2C(=O)NC(C)(C)C2=O)C1=O | 3.4% | i | 0.86 |
| NC(=S)NNc1cccc(Cl)c1 | -3.3% | i | · |
| Cc1ccc(-c2nn3c(C)nnc3s2)cc1NC(=O)C(C)C | 2.6% | i | -1.9 |
| O=C(Nc1c(C(=O)NCc2ccco2)cnn1-c1ccccc1)c1ccc(F)cc1 | -0.6% | i | 0.22 |
| Cc1cc(C)c(S(=O)(=O)NCc2ccncc2)c(C)c1 | 3.7% | i | · |
| CCC/C(=C1/C(=O)CC(C)(C)C(C(=O)OC)C1=O)N1CCCC1 (stereo unspecified) | 4.1% | i | -0.76 |
| Cc1cc(C)nc(N2CCC(C(=O)O)CC2)n1 | 2.2% | i | -0.1 |
| COc1cccc(CNC(=O)Cn2cccc2)c1 | -6.6% | i | -0.25 |
| CC(C)N(Cc1cc2ccccc2[nH]c1=O)C(=O)c1cccnc1 | -3.5% | i | -0.1 |

Part of the list above in another layout:
Each structure is followed by: Hsc70	MT1-MMP reporter	WNV protease inh
CC1(C)NC(=O)N(CC(O)CN2C(=O)NC(C)(C)C2=O)C1=O
    3.4%	i	0.86
NC(=S)NNc1cccc(Cl)c1
    -3.3%	i	·
Cc1ccc(-c2nn3c(C)nnc3s2)cc1NC(=O)C(C)C
    2.6%	i	-1.9
O=C(Nc1c(C(=O)NCc2ccco2)cnn1-c1ccccc1)c1ccc(F)cc1
    -0.6%	i	0.22
Cc1cc(C)c(S(=O)(=O)NCc2ccncc2)c(C)c1
    3.7%	i	·

Going on with the list:
| Molecule | Hsc70 | MT1-MMP reporter | WNV protease inh |
| --- | --- | --- | --- |
| CCOC(=O)c1c(NC(=O)CSc2nnc(-c3ccco3)o2)sc(C)c1C | 2.2% | i | · |
| COc1ccc(N(CC(=O)Nc2cc(C(=O)O)ccc2C)S(=O)(=O)c2c(C)noc2C)cc1 | 2.6% | i | 0.31 |
| Cn1c(=O)c2c(ncn2Cc2cc(-c3ccccc3)no2)n(C)c1=O | 6.3% | i | -1.3 |
| CCc1cccc2c(C(=O)Cn3nnc(-c4ccc(OC)c(OC)c4)n3)c[nH]c12 | 1.7% | i | · |
| O=C(CN1C(=O)COc2ccccc21)NCCCN1CCc2ccccc2C1 | 3.7% | i | -0.38 |
| Cc1nnc2n(-c3ccccc3)c(=O)c3c4c(sc3n12)COC(C(C)C)C4 (stereo unspecified) | -0.6% | i | -1.1 |
| O=C(O)CCC(=O)Nc1ccc(Cc2ccc(NC(=O)CCC(=O)O)c(O)c2)cc1O | -2.6% | i | · |
| CC(C)C(=O)NCCCc1ccccc1 | 1.7% | i | · |
| Cc1ccc2[nH]c(=O)c(-c3nc4c(C)cccn4c3NCc3ccco3)cc2c1 | -7.9% | i | 2 |
| CC1CCc2cc(F)cc3c(O)c(C(=O)Nc4cnccn4)c(=O)n1c23 (stereo unspecified) | 2.3% | i | -0.24 |
| O=C(NCCN1C(=O)C2C3C=CC(C3)C2C1=O)NCc1ccccc1 (stereo unspecified) | -2.9% | i | 0.06 |
| Oc1ccc(-c2n[nH]c(=S)n2Cc2ccco2)cc1 | 2.8% | i | · |
| Cc1ccc2cc3cc(C(=O)N4CCCCC4C)oc3nc2c1 (stereo unspecified) | -7.8% | i | -1.3 |
| COC(=O)c1ccc(-n2nnnc2SCc2ccccc2OC)cc1 | 0.3% | i | 1.5 |
| CN1C(=O)c2cccc(NCCCN3C(=O)c4ccccc4C3=O)c2C1=O | -41% | i | 1.5 |
| Cc1ccc(N(Cc2ccc(C(=O)Nc3ccccc3C(=O)NCc3ccco3)cc2)S(C)(=O)=O)cc1C | 0.3% | i | · |
| CC(=O)NCc1cc(-c2nn(C)c(=O)c3ccccc23)ccc1C | 1.5% | i | · |
| Cc1cc(S(=O)(=O)Nc2nc(CN3CCOCC3)nc3sc4c(c23)CCCC4)ccc1F | -4.1% | i | · |
| Cc1ccc(CN2CC(C(=O)Nc3ccc4c(C)cc(=O)oc4c3)CC2=O)cc1 (stereo unspecified) | 1.5% | i | 1 |
| CCN(CC)C(=O)CSc1nnc(-n2nc(C)cc2C)c2ccccc12 | -0.8% | i | -0.78 |
| COc1ccc(CCNC(=O)C2CCCN(C(=O)N(C)C)C2)c(OC)c1 (stereo unspecified) | -0.1% | i | 0.8 |
| O=C(NCCC1=CCCCC1)C1CC(=O)N(C2CCCCC2)C1 (stereo unspecified) | 2.1% | i | -0.13 |
| COC(=O)c1cc2c(s1)CS(=O)C2 (stereo unspecified) | -0.9% | i | -0.26 |
| Cc1ccccc1NC(=O)N(CCc1nc2ccccc2[nH]1)Cc1ccccc1 | 4.2% | i | · |
| CCOC(=O)N1CCN(C(=O)c2ccc3c(=O)n(Cc4ccc(OC)cc4)c(=S)[nH]c3c2)CC1 | 0.6% | i | -0.58 |
| O=C(CCSc1nccn1Cc1ccccc1)N1CCOCC1 | -0.8% | i | 0.09 |
| Cc1nc(C)c(C(=O)Nc2ccccc2)s1 | 2.3% | i | 1.7 |
| Cc1cc(C)n(C(=O)c2ccc(C)c(S(=O)(=O)N3CCOCC3)c2)n1 | 6.7% | i | 0.45 |
| Cc1noc(C)c1S(=O)(=O)N(CC(=O)Nc1ccc2c(c1)OCCO2)c1ccc(C(C)C)cc1 | -3.7% | i | 0.78 |
| CC1CCc2c(sc3nc(SCc4nc(-c5ccccc5)no4)n(C)c(=O)c23)C1 (stereo unspecified) | 2.0% | i | -0.25 |
| Cc1nc2ccc(-c3ccccc3)cc2o1 | 8.0% | i | 1.2 |
| CCOc1ccccc1N(CC(=O)NC1CCCCC1)C(=O)CCCC(=O)Nc1ccccn1 | 1.2% | i | -1.2 |
| O=C(COc1ccccc1)N1CCN(C(=O)Cc2ccccc2)CC1 | -4.3% | i | 0.33 |
| COc1ccc(-n2c(-c3ccc(F)cc3)cnc2SCC(=O)NCc2ccco2)cc1 | 1.3% | i | · |
| CC(=O)c1ccc(OCCN2CCOCC2)cc1 | -0.4% | i | · |
| Cn1c(=O)oc2cc(S(=O)(=O)NCCc3ccccc3)ccc21 | -2.1% | i | -0.45 |
| O=C(Nc1ccc(NC(=O)C2CC2)nc1)c1cccnc1 | -1.9% | i | 0.71 |
| COc1ccc(-c2nnc(NC(=O)c3ccc(S(=O)(=O)N4CCCc5ccccc54)cc3)o2)cc1 | -3.3% | i | -0.35 |
| O=C(Nc1cccc(-c2cn3ccccc3n2)c1)c1cnccn1 | -0.3% | i | 1.9 |
| CCOC(=O)N1CCN(C(=O)CSCc2nc(-c3ccccc3C)oc2C)CC1 | -4.6% | i | 0.29 |
| CC1CCCN(C(C(=O)Nc2ccc3c(c2)OCCO3)c2ccccc2)C1 (stereo unspecified) | 7.9% | i | 0.36 |
| COc1ccc(-c2ccc(-c3nnn(CC(=O)N4CCOCC4)n3)cc2)cc1 | -4.7% | i | 0.2 |
| O=C(CN1C(=O)CSC1=O)Nc1ccccc1F | -4.7% | i | -0.75 |
| CCN(CC)c1ncnc2ccc(Br)cc12 | -1.1% | i | · |
| CC(C)(C)c1cc(CN2CCN(CCC#N)CC2)cc(C(C)(C)C)c1O | -3.7% | i | -0.96 |
| COc1ccc(Cl)c(NC(=O)NCCN2CCN(c3ccccc3)CC2)c1 | -3.2% | i | 0.05 |
| COc1ccc(C(=O)CN2C(=O)c3ccccc3C2=O)c(OC)c1C | -1.2% | i | -0.65 |
| CCSC(=Nc1ccccc1)C1=C(O)COC1=O | 2.9% | i | -0.0097 |
| O=C(CCCN1C(=O)c2ccccc2C1=O)Nc1ccc(S(=O)(=O)N2CCCCC2)cc1 | -0.4% | i | · |
| CNC(=O)c1ccc(Nc2nnc(C)c3ccccc23)cc1 | -4.4% | i | · |
| Cc1ccccc1C(=O)Nc1ccccn1 | 4.3% | i | · |
| Cc1nn(-c2ccccn2)c2nc(-c3cccs3)cc(C(=O)N3CCOCC3)c12 | 0.1% | i | 0.32 |
| CCn1c(SCC(=O)N2CCOCC2)nc2sc3c(c2c1=O)CCCC3 | 2.8% | i | -0.59 |
| Cc1ccc(N2CCN(CC3CC=CCC3)CC2)cc1 (stereo unspecified) | -3.3% | i | 0.82 |
| CC1CCC(=C(C#N)C(=O)Nc2cccc(Cl)c2)CC1 (stereo unspecified) | 2.6% | i | · |
| C=CCNS(=O)(=O)CC12CCC(CC1=O)C2(C)C (stereo unspecified) | 2.2% | i | · |
| CN1CCN(c2ccc(Cl)cc2NC(=O)C2COc3ccccc3O2)CC1 (stereo unspecified) | -4.4% | i | -1.4 |
| COc1cccc(OC)c1NC(=O)C1CCCN1C(=O)NCc1ccccc1 (stereo unspecified) | 17% | i | -1.2 |
| COc1ccc(-c2oc3ncnc(NCCN4CCOCC4)c3c2-c2ccc(OC)cc2)cc1 | -2.2% | i | -0.51 |

Bioassay records from PubChem BioAssay.
